TSHR ag: qHTS Assay for Agonists of the Thyroid Stimulating Hormone Receptor | Thyrotropin receptor (Homo sapiens), P16473 | HEK293-CNG-TSHR cells (CNG channel as cAMP sensor), membrane potential dye, cAMP | AID 926, 2007 | 73,000 tested, 0.48% active | Potency, µM (series often up to 57.1 µM), for the others: at the top dose activation, hits mostly activators; active = well fitted activation curve of enough size with the parental cells flat; inconclusive = any curve in the parental cells; inactive = parental cells flat and receptor cells flat or falling; note: potency is the fitted concentration of half-maximal effect; % of control where 0% means no effect; weak receptor curves with flat parental cells got no call and are not listed
Target sequence (P16473 whole entry, looked up): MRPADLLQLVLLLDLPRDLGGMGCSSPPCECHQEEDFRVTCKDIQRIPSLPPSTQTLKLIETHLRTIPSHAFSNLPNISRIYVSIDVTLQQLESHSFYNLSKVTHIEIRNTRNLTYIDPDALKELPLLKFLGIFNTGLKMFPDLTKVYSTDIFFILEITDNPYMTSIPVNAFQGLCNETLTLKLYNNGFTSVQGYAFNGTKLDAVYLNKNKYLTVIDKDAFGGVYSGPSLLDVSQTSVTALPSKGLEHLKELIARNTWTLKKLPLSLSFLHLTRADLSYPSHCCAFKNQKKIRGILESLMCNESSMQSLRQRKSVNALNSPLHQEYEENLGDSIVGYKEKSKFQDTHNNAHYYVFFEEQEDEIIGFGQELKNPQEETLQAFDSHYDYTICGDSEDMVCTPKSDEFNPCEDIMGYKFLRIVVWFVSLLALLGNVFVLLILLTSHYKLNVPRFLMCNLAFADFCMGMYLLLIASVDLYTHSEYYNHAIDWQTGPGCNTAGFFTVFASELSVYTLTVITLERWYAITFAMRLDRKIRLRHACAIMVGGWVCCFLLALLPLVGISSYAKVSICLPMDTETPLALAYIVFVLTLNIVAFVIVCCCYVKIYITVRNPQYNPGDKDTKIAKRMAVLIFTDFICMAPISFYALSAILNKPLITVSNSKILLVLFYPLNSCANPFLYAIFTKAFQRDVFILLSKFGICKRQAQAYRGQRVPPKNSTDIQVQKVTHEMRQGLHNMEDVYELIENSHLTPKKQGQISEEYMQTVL
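HEK 293 cells stably expressing TSHR and a modified CNG channel, with CNG-only parental cells as counterscreen, were preloaded 60 min at room temperature with membrane potential dye containing 100 uM RO 20-1724. Compound exposure was 30 min, and depolarization was read as fluorescence at 590 nm.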
AID923: qHTS Assay for Allosteric/Competitive Inhibitors of Caspase-1: Spectroscopic Profiling in AFC Spectral Region; compound fluorescence, AFC spectral region (405/520 nm); almost no hit is shown here; Potency, µM (titrated, usually from 57.5 µM), for the others: at the top dose fluorescence increase, usual class: activators; 75,000 tested, 1.1% active; AID 923, 2007; active = well fitted activation curve with a large enough effect; inconclusive = small, poorly fitted or top-dose-only effect;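 note: potency is the fitted concentration of half-maximal effect; 0% is about no effect; scaled to a free AFC standard on each plate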
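Titrations up to 57 uM read every 20 sec for 3 min (405/520 nm) with 50 nM caspase 1 and 5 uM Ac-WEHD-AFC, pH 7.5 HEPES buffer. Fluorescence-vs-time intercept gave baseline, scaled against on-plate AFC standard.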
Resorufin autofl: qHTS Assay for Spectroscopic Profiling in Resorufin Spectral Region. AID 588, 2007. Compound fluorescence, resorufin region 547/598 nm, buffer; stronger effect = higher value. max dye-equivalent concentration, M. 59,000 tested, 0.04% active; active = above 10 nM dye equivalent; inconclusive = 1 to 10 nM; inactive = 1 nM or less; a few of its hits are not listed in these tables; note: highest value over a series up to 38 µM
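Compounds in 100 mM Tris, pH 8.0, incubated 15 min at room temperature, then fluorescence read at 547 nm excitation/598 nm emission. Signal converted to dye-equivalent concentration via an on-plate six-point resorufin standard curve, per compound concentration.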
A488 fluor: qHTS Assay for Spectroscopic Profiling in A488 Spectral Region; max dye equivalency, M; 59,000 tested, 0.1% active; compound autofluorescence, A488 spectral region, dye equivalency; stronger effect = higher value; AID 591, 2007; active = above 10 nM dye equivalent; inconclusive = 1 to 10 nM; inactive = 1 nM or less; about half of its hits are not listed in these tables;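 note: highest value over a series up to 38 µM; compound alone in buffer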
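Compound autofluorescence was read in 100 mM Tris pH 8.0 after 15 min at room temperature, ex 480 nm/em 540 nm. Intensities were converted to A488 dye-equivalent concentration using an on-plate six-point A488 standard curve.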
A647 autofl: qHTS Assay for Spectroscopic Profiling in A647 Spectral Region. max dye-equivalent concentration, M. Compound fluorescence, A647 channel (570/671 nm), Tris buffer. 59,000 tested, under 10 active; active means above 1 µM dye equivalent; inconclusive means 0.1 to 1 µM; inactive means 0.1 µM or less;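 note: values scaled relative to a standard on each plate; highest value over a series up to 38 µM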
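Compound fluorescence was measured in 100 mM Tris buffer, pH 8.0, after 15 min at room temperature, using 570 nm excitation and 671 nm emission filters. Signal was normalized to a per-plate Alexa 647 standard curve and expressed as dye-equivalent concentration at each compound concentration.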
Active calls of the source: *; i = inactive; ? = inconclusive; . = not tested or not shown; & = joins results of further samples; [ ] = remark or other dose. Only part of the results is shown; rates above refer to the full screens.

Start of the data: the first 3 records (preview)
structure	TSHR ag	AID923	Resorufin autofl	A488 fluor	A647 autofl
COCC(=O)Oc1c(S(=O)(=O)c2ccc(C)cc2)c(C)nn1-c1ccccc1	9%	1.3%	i	i	1.5e-08
CCc1nn(CC(=O)NCCCN2CCc3ccccc3C2)c(=O)c2cc3sccc3n12	-15%	2.0%	.	.	.
CC(C)(C)N1C(=O)[C@H]2[C@H]3[C@H](O)[C@H](O)C/C(=N/NC(=O)OCc4ccccc4)[C@@H]3CC[C@@H]2C1=O	?	-1.3%[11.5 µM]	.	.	.

Results, repeating the preview:
structure	TSHR ag	AID923	Resorufin autofl	A488 fluor	A647 autofl
COCC(=O)Oc1c(S(=O)(=O)c2ccc(C)cc2)c(C)nn1-c1ccccc1	9%	1.3%	i	i	1.5e-08
CCc1nn(CC(=O)NCCCN2CCc3ccccc3C2)c(=O)c2cc3sccc3n12	-15%	2.0%	.	.	.
CC(C)(C)N1C(=O)[C@H]2[C@H]3[C@H](O)[C@H](O)C/C(=N/NC(=O)OCc4ccccc4)[C@@H]3CC[C@@H]2C1=O	?	-1.3%[11.5 µM]	.	.	.
O=C(NCCc1ccccc1)c1ccncc1	1%	0.8%	.	.	.
Cc1ccc(C2=N/C(=C/N3CCOCC3)C(=O)O2)cc1	-5%	0.3%	i	i	1e-09
COc1cc(C(=O)OCC(=O)c2cc(C)n(C)c2C)cc(NC(=O)c2ccco2)c1OC	?	1.3%	i	i	9.6e-09
c1cc2c(cc1C(N1CCNCC1)N1CCNCC1)OCO2	2%[11.4 µM]	1.2%[11.5 µM]	i	i	1e-09
CCOc1ccc(-c2nc(C#N)c(N3CCN(Cc4ccccc4)CC3)o2)cc1	25%	-2.1%	.	.	.
O=C(Nc1ccc2c(c1)OCCO2)C1CCN(C(=O)c2ccc(Br)cc2)CC1	17%	0.6%	i	i	1e-09
Cc1ccc2cc(C#N)c(SCC(=O)NCC3CCCO3)nc2c1C (stereo not drawn)	5%	0.6%	i	i	2.9e-08
CC(=O)Oc1c(S(=O)(=O)c2ccc(C)cc2)c(C)nn1-c1ccccc1	12%	0.6%	i	i	2.1e-08
O=C(CCCN1C(=O)CCC1=O)Nc1ccc2c(c1)OCCO2	0%	1.8%	i	i	6.7e-09
O=C(c1cnc2sccn2c1=O)N(Cc1ccccc1)c1ccccn1	10%	-3.2%	.	.	.
O=C(NC1CCCCC1)C1CCCN(S(=O)(=O)c2cnc[nH]2)C1 (stereo not drawn)	4%	2.1%	.	.	.
COc1ccc2[nH]cc(CCNc3ncnc4ccc(-c5cccc(C#N)c5)cc34)c2c1	?	2.4%	i	i	1e-09

Other compounds
structure	TSHR ag	AID923	Resorufin autofl	A488 fluor	A647 autofl
C[N+]1(CCN=C=NC2CCCCC2)CCOCC1	-7%[11.4 µM]	-1.1%[11.5 µM]	i	i	2e-08
CC(C)CCN1CC(C(=O)NCc2ccccc2)CC1=O (stereo not drawn)	8%	-0.6%	i	i	8.3e-09
CC1CCN(Cc2ccc(NC(=O)C3CCN(c4nnc(-n5cccc5)s4)CC3)cc2)CC1	-17%	-1.3%	.	.	.
c1ccc(CCCc2nc(-c3ccccn3)no2)cc1	-5%	-0.4%	i	i	3.7e-08
CCOC(=O)C1=C(c2ccccc2)N2CCN=C2S1	-4%	-0.7%	i	i	1e-09
COc1cc(C2C3=C(CC(c4ccco4)CC3=O)Nc3ccccc3N2C(C)=O)cc(OC)c1OC (stereo not drawn)	4%	-1.2%	.	.	.
COc1cc2nc(NC(=O)c3ccccc3)[nH]c(=O)c2cc1OC	?	-3.2%	i	i	1.7e-08
CC(C)(C)c1csc(NC2=NS(=O)(=O)c3ccccc32)n1	-2%	-2.3%	i	i	1e-09
CCOC(=O)C1CCN(c2cc(C)nc3cc(-c4cccc(F)c4)nn23)CC1	?	10%	i	i	1.8e-09
N[C@H](Cc1ccc(Cl)cc1)C(=O)O	2%&11%	0.9%	i	i	6.3e-09
Cc1cc(-c2ccccc2)nc2cc(C(=O)NCCCn3ccnc3)nn12	6%	4.3%	i	i	3.6e-08
N#CCc1nc2c3c4c(sc3ncn2n1)CCCC4	.	.	i	i	1e-09
O=C(CCC(=O)Nc1ccc(Oc2ccccc2)cc1)NCCO	1%	2.7%	i	i	1.6e-09
Cc1ccc(S(=O)(=O)Cc2ccc(C(=O)N3CCN(c4cc(C)ccc4C)CC3)o2)cc1	?	-0.3%	i	i	1e-09
Cc1nn2c3c(cnc2c1-c1ccc(Cl)cc1)C(=O)CC(c1ccco1)C3 (stereo not drawn)	22%	4.6%	i	i	4.8e-09

The listing continues.
structure	TSHR ag	AID923	Resorufin autofl	A488 fluor	A647 autofl
N#CC1=C(N)Oc2n[nH]c(-c3ccccc3)c2C12C(=O)Nc1ccccc12 (stereo not drawn)	2%	1.0%	i	i	1.6e-09
O=C(O)CCCNS(=O)(=O)c1ccc2ccccc2c1	19%	-1.1%	i	i	1.6e-09
Cc1cc(C)cc(N2C(=O)CSC2c2cccs2)c1 (stereo not drawn)	20%	-0.5%	i	i	1e-09
Cc1ccc(-c2cc(C(=O)Nc3cnn(C45CC6CC(CC(C6)C4)C5)c3)no2)cc1	8%	0.2%	i	i	4.4e-09
Cc1occc1C(=O)Nc1nnc(-c2ccncc2)s1	-1%	-1.8%	.	.	.
Cc1cccc(Nc2nc(N)nc(CN3CCN(c4ccc(F)cc4)CC3)n2)c1	-5%	1.8%	i	i	2.4e-09
CCOC(=O)Cn1c(=O)c2c(nc(Br)n2Cc2ccc(Cl)cc2)n(C)c1=O	?	-0.7%	i	i	5.2e-09
Cc1nn(Cc2ccc(Cl)c(Cl)c2)c(C)c1NC(=O)c1noc2c1CCCCC2	11%	-1.0%	i	i	1.3e-08
Cc1cc(NC(=O)CN2CCc3ccccc3C2)nc2c1c(=O)oc1ccccc12	2%	3.6%	.	.	.
Cn1c(=O)[nH]c(=O)c2c1nc(CN1CCN(c3ccccc3F)CC1)n2CCCc1ccccc1	24%	-0.7%	i	i	1e-09
Cc1cccc([C@@H]2CN(C)CCc3c2cc(O)c(O)c3Cl)c1	?	1.3%&-0.2%	i	i	2.3e-09
Oc1ccc(-c2csc(Nc3cccnc3)n2)cc1	5%	-0.3%	i	i	1e-08
CC(C)C[C@@H]1NC(=O)N(CCN2CCOCC2)C1=O	0%	2.3%	i	i	3.4e-08
O=C(Cc1ccc(S(=O)(=O)N2CCOCC2)s1)NCC1CCCCC1	0%	-2.5%	i	i	2.1e-09
C[C@@H](C(=O)O)[C@H]1C[C@]1(C)[C@H](NC(=O)OCc1ccccc1)c1ccccc1	?	-1.3%	.	.	.

Further results follow:
structure	TSHR ag	AID923	Resorufin autofl	A488 fluor	A647 autofl
Cc1ccc2c(c1C)NC(C(=O)O)C1CC=CC21 (stereo not drawn)	-2%	2.0%	i	i	1.6e-09
O=C(CN1C(=O)C2C3C=CC(C3)C2C1=O)N1CCc2ccccc2C1 (stereo not drawn)	4%	0.0%	i	i	2.2e-09
CCC1CCCCN1CCNC(=O)c1[nH]c(C)c(C(C)=O)c1C (stereo not drawn)	?	0.8%	i	i	1e-09
CCCCCCS(=O)Cc1ccccc1 (stereo not drawn)	5%	-0.1%	.	.	.
O=C(c1cccs1)N1CCN(C(=O)c2ccco2)c2ccccc2C1	8%	0.6%	i	i	1e-09
CCOC(OCC)P(=O)(c1ccccc1)c1ccccc1	25%	-0.6%	.	.	.
CC(C)N(Cc1nc(-c2ccccc2)no1)C(=O)CN1C(=O)c2ccccc2C1=O	3%	0.1%	i	i	2.4e-08
CCOC(=O)Cn1nnc(-c2cccc(OC)c2)n1	2%	-1.9%	i	i	5.5e-08
O=C(COc1ccc(S(=O)(=O)NC2CCCCC2)cc1)N1CCN(c2ccc(F)cc2)CC1	24%	0.9%	.	.	.
Cc1ccc(Cn2nnc3c(=O)n(CC(=O)OCc4ccccc4)cnc32)cc1	7%	0.0%	i	i	1e-09
Cc1cccc(C)c1NC(=O)C(c1ccccc1)N1CCN(C(=O)c2ccco2)CC1 (stereo not drawn)	23%	0.9%	i	i	2.2e-08
N#CC1=C(N)Oc2c(ccc3cccnc23)C1c1cccnc1 (stereo not drawn)	3%	20%	i	i	1.4e-08
COc1cc(NS(=O)(=O)c2ccc(F)cc2)c(OC)cc1NC(C)=O	1%	0.4%	.	.	.
Nc1c(S(=O)(=O)c2cccc(Cl)c2)c2nc3ccccc3nc2n1/N=C/c1ccc(O)c(O)c1	-9%	0.3%	i	i	1e-09
COc1ccc(-c2n[nH]c(C)c2-c2ccc(OC)c(OC)c2)c(O)c1	5µM*	-1.5%	i	i	1e-09

Next section.
structure	TSHR ag	AID923	Resorufin autofl	A488 fluor	A647 autofl
COc1cccc(N2CCN(Cc3nc(N)nc(Nc4ccccc4)n3)CC2)c1	2%	2.9%	i	i	1e-09
COC(=O)Cn1ncn2c(cc3oc(C)cc32)c1=O	-5%	1.1%	i	i	3.2e-08
Cc1cc(C)n2cc(CSCc3ccco3)nc2n1	4%	5.1%	i	i	2.7e-08
CCOc1ccc(OCc2ccc(C(=O)N3CCCC3)o2)cc1	.	0.5%	i	i	1e-09
CCC(=O)Nc1ccc2nc(SCC(=O)N3CCCC3)sc2c1	0%	18%	i	i	1e-09
Cc1cccc(-n2ncc3c(NCc4cccs4)ncnc32)c1	-3%	0.2%	i	i	3.5e-08
C[C@H](Br)C(=O)c1ccc2cc(Br)c3ccccc3c2c1	-1%[11.4 µM]	-0.9%[11.5 µM]	i	i	4.7e-08
Cn1nnnc1P(=O)(c1ccccc1)c1ccccc1	-2%	-1.8%	i	i	3.5e-09
Cc1nc(NC2=NCN(Cc3cccnc3)CN2)nc2c(C)cccc12	0%	1.0%	i	i	1.6e-08
NC(=O)c1ccsc1NC(=O)COc1ccccc1	-17%	0.8%	i	i	1e-09
CC(=O)N1C2CCCCC2S[C@H]2CCCCC21 (stereo partly drawn)	11%	-1.6%	i	i	2.1e-08
N#Cc1c(NC(=O)CSc2nnc(-c3ccncc3)n2CC2CCCO2)sc2c1CCCC2 (stereo not drawn)	5%	0.7%	i	i	4.1e-09
CC(=O)NC1C2CN3CCN(C2)CC1(Cc1ccccc1)C3 (stereo not drawn)	-22%	0.0%	i	i	1.5e-08
CCc1nc(NCCN2CCOCC2)c2oc3ccccc3c2n1	8%	-1.3%	i	i	2e-08
Cc1cccc(NC(=O)Cn2c(C)c(C#N)c3ccccc32)c1C	?	2.4%	i	i	5.1e-08

Further results.
structure	TSHR ag	AID923	Resorufin autofl	A488 fluor	A647 autofl
O=C(NCc1cccs1)C1CCCN1C(=O)Nc1ccccc1 (stereo not drawn)	0%	-1.6%	i	i	1.2e-08
O=C(Cn1cnc2c(nnn2Cc2ccccc2)c1=O)N1CCCc2ccccc21	-8%	3.0%	.	.	.
Cc1cc(NS(=O)(=O)c2ccc(NC(=O)NC3CCCCC3)cc2)no1	-2%	-2.4%	i	i	3.6e-08
Clc1cccc2c1CN(C1=NCCN1)C2	?	0.8%	.	.	.
COc1ccccc1NC(=O)c1ccc(N)cc1	?	-0.1%	i	i	2e-09
O=C(Nc1ccc(F)cc1)C1CCCCC1	11%	0.7%	i	i	3.7e-09
CCO/C=N/c1c(C#N)c2c(c(=S)n1C)COC(C)(C)C2	.	14%	i	i	3.2e-08
CSc1nnc2c(n1)OC=Nc1ccccc1-2	-7%	0.1%	i	i	1e-09
